KCNQ2 pot = KCNQ2 (rat) channel potentiation; AID 2239; actives 0.54% (n = 310,000); B-score at 10 µM; CHO-K1 KCNQ2, FluxOR thallium flux fluorescence; stronger effect = higher value; O88943;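 active = fluorescence ratio B-score at least 3 SD of library B-scores, with initial fluorescence B-score within 3 SD, cut at about 5.3 in these data; same plate scores as AID 2156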;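 also: B-score of peak minus minimum over baseline fluorescence ratio after K+ and Tl+ stimulus; positive B-score means potentiation of KCNQ2 with more thallium influx and brighter signal; only the inactives scoring about 0 or higher are listed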
Target sequence (O88943 whole entry, looked up): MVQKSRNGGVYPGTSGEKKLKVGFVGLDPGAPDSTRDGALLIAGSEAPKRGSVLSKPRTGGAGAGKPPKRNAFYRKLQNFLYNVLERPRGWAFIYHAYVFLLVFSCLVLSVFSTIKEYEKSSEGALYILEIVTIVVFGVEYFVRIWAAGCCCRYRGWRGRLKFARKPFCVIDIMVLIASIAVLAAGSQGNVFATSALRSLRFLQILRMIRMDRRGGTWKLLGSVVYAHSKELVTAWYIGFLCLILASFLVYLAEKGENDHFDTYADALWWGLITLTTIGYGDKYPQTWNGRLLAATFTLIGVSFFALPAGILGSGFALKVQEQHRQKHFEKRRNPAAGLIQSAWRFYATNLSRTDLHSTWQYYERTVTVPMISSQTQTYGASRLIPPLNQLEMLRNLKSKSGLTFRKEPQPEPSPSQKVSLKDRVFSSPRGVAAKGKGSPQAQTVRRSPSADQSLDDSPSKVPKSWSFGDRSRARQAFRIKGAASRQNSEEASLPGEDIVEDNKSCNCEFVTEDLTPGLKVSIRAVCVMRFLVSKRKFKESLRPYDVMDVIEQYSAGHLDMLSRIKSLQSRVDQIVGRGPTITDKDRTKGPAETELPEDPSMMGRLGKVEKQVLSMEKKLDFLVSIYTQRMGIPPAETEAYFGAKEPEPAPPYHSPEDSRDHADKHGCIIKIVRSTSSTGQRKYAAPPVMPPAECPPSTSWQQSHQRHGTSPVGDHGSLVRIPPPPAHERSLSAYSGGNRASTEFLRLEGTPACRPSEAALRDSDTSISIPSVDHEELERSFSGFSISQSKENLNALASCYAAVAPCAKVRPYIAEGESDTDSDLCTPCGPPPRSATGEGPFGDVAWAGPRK
KCNQ2 pot baseline = also measured in KCNQ2 pot; calls as there; B-score; compound at 10 µM; measured here: initial fluorescence intensity artifact check;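 brightness before thallium and not channel activity; 0 = typical well and far values either way flag optical interference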
An asterisk follows results filed as active. The list is partial; the hit share may differ from the screen's.

SMILES	KCNQ2 pot	KCNQ2 pot baseline
CC1CCCCN1S(=O)(=O)c1ccc(S(=O)(=O)NCCc2ccncc2)cc1 (stereo not given)	0.55	0.05
Cc1ccc(NC(=O)COc2ccccc2C(=O)Nc2ccccc2)cc1Cl	0.17	-0.73
O=C1COc2ccc(S(=O)(=O)CCC(=O)N3CCN(c4cccc(Cl)c4)CC3)cc2N1	2.7	0.75
O=C(CN(c1ccc(F)cc1)S(=O)(=O)c1ccc2c(c1)OCCO2)NCc1ccccn1	0.46	1.1
Cc1cc2ccccc2nc1SCC(=O)NC1CCCCC1	11*	0.35*
CC(NC(=O)Cn1nc(-c2ccccc2)c2ccccc2c1=O)c1ccccc1 (stereo not given)	1.8	2.1
O=C(CNC(=O)c1ccc2c(c1)OCCO2)N/N=C/c1ccc(Cl)cc1	0.06	1.6
CC(C)OCCCNc1nc2c(-c3ccccc3)nnn2c2ccccc12	0.01	0.4
COc1ccc(/C=N\N=C2/SC(CC(=O)O)C(=O)N2c2ccc(O)cc2)cc1OC (stereo not given)	0.42	1.5
Cn1c(NCc2cccnc2)nc2c1c(=O)n(Cc1ccccc1F)c(=O)n2C	1.1	0.39
O=C(CSc1n[nH]c(-c2cccs2)n1)NCCc1ccccc1	0.58	1.4
O=C(Nc1nccs1)C1CCN(S(=O)(=O)c2ccc3c(c2)OCCCO3)CC1	1.7	1.3
Cc1oc2cc(O)ccc2c(=O)c1N1C(=O)c2ccccc2C1=O	1.2	1.7
Cc1ccc(NC(=O)COC(=O)c2cccc(N3C(=O)c4ccccc4C3=O)c2)cc1	0.45	0.21
CCCCC(NS(=O)(=O)c1ccc(C)cc1)C(=O)Oc1ccc2c3c(c(=O)oc2c1)CCC3 (stereo not given)	0.72	-0.14
C=CCc1ccccc1OCC(CN1CCCCC1)OC(C)=O (stereo not given)	0.39	-0.09
CCOc1nc(-c2ccccc2)ccc1-c1noc(COC)n1	0.53	-0.05
Cc1cccc(C(=O)NCCNC(=O)c2cccc(C)c2)c1	0.88	-0.56
CCCc1nc2ccccc2n1CCOc1ccccc1	1.8	-4
Cc1cccc(NC(=O)CN2C(=O)N/C(=C\c3ccc(-c4cccc(C(=O)O)c4)o3)C2=O)c1	1.3	1.1
O=C(CCCC(=O)Nc1ccccc1Br)N/N=C/c1c(F)cccc1Cl	2.1	-0.93
Cc1onc(-c2c(F)cccc2Cl)c1C(=O)OCC(=O)Nc1c(C)n(C)n(-c2ccccc2)c1=O	0.37	1.2
COc1ccc(CNC(=O)c2noc3c2CCCC3)cc1	0.25	-0.23
COc1ccc2oc(C(=O)OCC(=O)NCCN3C(=O)CSC3=O)c(C)c2c1	1.5	1.3
Cc1ccc(S(=O)(=O)N2CCN(C(=O)c3c(-c4ccccc4)noc3C)CC2)cc1	0.88	1.1
COc1cccc(NC(=O)CN(C)C(=O)c2cc(C)on2)c1	0.31	2.7
Cc1ccnc(NS(=O)(=O)c2ccc(NC(=O)C34CC5CC(CC(C5)C3)C4)cc2)n1	2.2	0.01
CC1=N/C(=C\c2ccc([N+](=O)[O-])cc2)C(=O)N1c1ccc(Br)c(C)c1	0.75	0.08
COc1ccc(NC(=O)/C=C/C(=O)O)cc1Cl	0.69	0.59
CCn1c(=O)c2c(cnn2C)c2ccccc21	0.59	0.71

Arranged by number of heavy atoms (low to high): three of the compounds above
SMILES	KCNQ2 pot	KCNQ2 pot baseline
CCn1c(=O)c2c(cnn2C)c2ccccc21	0.59	0.71
CC1=N/C(=C\c2ccc([N+](=O)[O-])cc2)C(=O)N1c1ccc(Br)c(C)c1	0.75	0.08
Cc1ccc(S(=O)(=O)N2CCN(C(=O)c3c(-c4ccccc4)noc3C)CC2)cc1	0.88	1.1

The list goes on:
SMILES	KCNQ2 pot	KCNQ2 pot baseline
CCn1c(SC)nnc1-c1ccc(S(=O)(=O)N2CCCCC2)cc1	0.66	1.1
O=C(Cc1ccc2cccnc2c1)c1ccc(O)cc1O	1.1	-0.52
N#Cc1ccc(OCC(O)CS(=O)(=O)c2ccc(F)cc2)cc1 (stereo not given)	0.74	1.7
NC(=O)c1c(NC(=O)CN2CCOCC2)sc2c1CCC2	1.3	0.45
Cc1ccc(-n2[nH]c(C)c(C=Nc3ccc(Br)cn3)c2=O)cc1	0.65	-1.3
COc1ccccc1OCCNC(=O)c1ccc2c(c1)OCCO2	6.7*	-1*
CCC(C)NC(=O)C1CCC(=O)N(c2ccc3c(c2)OCO3)C1c1ccc(OC)cc1 (stereo not given)	0.71	-1.1
CCOc1ccc(OCC(=O)NCCc2nc3ccccc3[nH]2)cc1	0.99	0.46
CC(C)c1ccc(OCC(=O)NNC(=O)c2cnccn2)cc1	1	-1.1
COc1cccc(C(=O)Nn2cnnc2)c1	1.2	-0.04
CN(CCNC(=O)c1cn(C)c2ccc(S(=O)(=O)N(C)C)cc2c1=O)CCc1ccccc1	1.1	0
CC(C)(O)C#Cc1ccc(C(=O)N2CCC(C(N)=O)(N3CCCCC3)CC2)o1	0.16	-0.39
Cc1sc(N)nc1-c1ccccc1	0.79	0.23
Oc1oc(-c2cccc3ccccc23)nc1/C=N/c1nccs1	9.4*	-0.94*
O=C(N/C(=C\c1cn(-c2ccccc2)nc1-c1ccccc1)C(=O)N1CCOCC1)c1ccccc1	0.31	0.04
COc1ccccc1C(=O)n1nc(C)cc1C	0.43	-0.28
Cc1ccc(F)cc1NC(=O)c1sc2ncn(CC(=O)N3CCN(c4ccccn4)CC3)c(=O)c2c1C	0.56	-0.7
CC(C)[C@H](NC(=O)C1CCN(C(=O)[C@H](Cc2ccccc2)NC(=O)OC(C)(C)C)CC1)C(=O)O	1.9	-0.83
C=CCNC(=O)c1ccc(Cn2cc(C(F)(F)F)ccc2=O)cc1	0.03	1.6
O=C(COc1ccc(Cl)cc1)NCc1ccncc1	0.97	-0.58
NC(=O)c1ccc(=O)n(Cc2ccc(F)c(F)c2)c1	0.97	-1.3
Cc1cc(C)c2nc(N)sc2c1	0.59	0.53
O=C(CP(=O)(c1ccccc1)c1ccccc1)N1CCOCC1	0.22	3.5
Cc1ccc2nc3sc(C(=O)Nc4ccc(N5CCOCC5)cc4)c(N)c3cc2c1	0.01	-0.44
Cc1ccc(NC(=O)CN(C)C(=O)COC(=O)CNS(=O)(=O)c2ccc(F)c(F)c2F)cc1	0.01	1
CCC(=O)N1CCN(c2ccc(NC(=O)c3ccc4c(c3)OCO4)cc2)CC1	2	0.09
Cc1ccc(SCC(=O)NC(=O)NC(C)C)c(C)c1	0.33	-0.64
O=C(Nc1cccc(C(=O)O)c1)/C(=C\c1ccc2c(c1)OCO2)NC(=O)c1ccc(Br)cc1	0.05	1.1
CC(C)Cn1nc(NS(=O)(=O)c2ccccc2)c2cc3ccccc3nc21	0.98	1.3
CC(=O)Oc1cccc(C(=O)Nc2ccccc2C(=O)N2CCCC2)c1	0.83	0.03
Cc1cccc(NC(=O)C2SC(=Nc3c(C)cccc3C)C(C(=O)N3CCOCC3)=C2N)c1 (stereo not given)	0.36	-0.84
Cn1cc(/C=C2/SC(=O)N(c3ccccc3)C2=O)c2ccccc21	0.27	0.21
COc1ccc(-c2cc(C(=O)N/N=C/c3cccnc3)c3ccccc3n2)c(OC)c1	2.2	-2.9
C[C@@]12C(=O)N(CCO)CC(=O)N1[C@H](/C=C/c1ccccc1)[C@@H]1C(=O)N(c3ccccc3)C(=O)[C@@H]12	0.48	0.69
CSc1ccccc1OCc1cc(C(=O)NC(C)Cn2cncn2)no1 (stereo not given)	0.6	-0.14
CCCCN(C(=O)CSCC(=O)Nc1ccc(C)cc1)c1c(N)n(CCCC)c(=O)[nH]c1=O	0.13	-1.2
CSCCC(NC(=O)c1ccc(C)o1)C(=O)O (stereo not given)	0.71	-1.6
CC(OC(=O)c1cc(S(=O)(=O)N2CCOCC2)ccc1F)C(=O)NC1CCCCC1C (stereo not given)	1.2	0.13
COc1ccc(CC(=O)N/N=C/c2ccc(-c3ccc(F)cc3)o2)cc1OC	1.3	1.4
CCOC(OCC)c1ccc(/C=C\c2nccc(N)n2)cc1	0.83	-1.8
Cc1c(C(=O)Nc2ccc(S(=O)(=O)NCC3CCCO3)cc2)cccc1[N+](=O)[O-] (stereo not given)	0.12	-0.9
O=C(C1CCCN(S(=O)(=O)c2cccnc2)C1)N1CCN(c2ccccn2)CC1 (stereo not given)	0.61	2.1
COc1ccc(NS(=O)(=O)c2csc(C(N)=O)c2)cc1	0.01	1.1
COc1ccc(Cn2nnnc2C(c2cccnc2)N2CCN(c3ccc(O)cc3)CC2)cc1 (stereo not given)	0.81	0.38
Cc1noc(C)c1C(=O)Nc1ccc(F)cc1	0.56	0.44

Some of these compounds in order of their number in KCNQ2 pot baseline, rising:
| smiles | KCNQ2 pot baseline |
| --- | --- |
| Cc1ccc(-n2[nH]c(C)c(C=Nc3ccc(Br)cn3)c2=O)cc1 | -1.3 |
| CCC(C)NC(=O)C1CCC(=O)N(c2ccc3c(c2)OCO3)C1c1ccc(OC)cc1 (stereo not given) | -1.1 |
| Cc1c(C(=O)Nc2ccc(S(=O)(=O)NCC3CCCO3)cc2)cccc1[N+](=O)[O-] (stereo not given) | -0.9 |
| Cc1ccc(SCC(=O)NC(=O)NC(C)C)c(C)c1 | -0.64 |

Additional records follow:
SMILES	KCNQ2 pot	KCNQ2 pot baseline
CC(=O)Nc1ccc(NC(=O)C(C)O/N=C/c2cccc([N+](=O)[O-])c2)cc1 (stereo not given)	0.1	-0.9
OC(c1ccccc1)(c1ccccc1)c1ccn[nH]1	0.76	0
COc1ccccc1NC(=O)Cn1nc(Cc2cccnc2)c2ccccc2c1=O	0.05	1.1
Cc1cc(C)n(CCCNC(=O)C2CCC(=O)N(CCc3ccc(Cl)cc3)C2)n1 (stereo not given)	0.13	-0.69
Cc1[nH]c(=S)n(CC2CCCO2)c1C (stereo not given)	0.05	-0.01
Cc1c(Cl)cccc1NC(=O)NCc1ccc(C)n1C	0.17	-1.6
C[C@H](NC(=O)C1CC(=O)N(c2ccc3c(c2)OCO3)C1)C(=O)NCc1ccco1 (stereo not given in full)	1.1	0.51
O=S(=O)(c1ccc2c(c1)nc(COc1ccc(Cl)cc1)n2CC1CCCO1)N1CCOCC1 (stereo not given)	1.1	0.23
O=C(Cn1nnc(-c2ccccc2)n1)Nc1cccc(S(=O)(=O)N2CCCC2)c1	2.8	-0.75
O=C(Nc1cccn2ncnc12)c1cccc(C(F)(F)F)c1	2.2	-0.79
COc1cccc(OCCn2cccc2/C=C2/C(=N)N3OC(C)=CC3=NC2=O)c1	1.3	0.52
Fc1ccccc1C1CCN(Cc2nc(COc3ccccc3)no2)C1 (stereo not given)	0.08	1.5
Cc1cc(OCCn2ccnc2)ccc1C(C)C	0.06	-0.6
CCOC(=O)C(=NC1CCCCC1)NNc1cccc(C(F)(F)F)c1	0.01	0.04
NC(=O)c1ccccc1N/C=C/C(=O)c1ccc(F)cc1	0.62	-0.43
N#Cc1cc2c(nc1SCC(=O)O)CCCC2	0.57	0.31
Cn1nnnc1SCc1nc2ccccc2s1	0.24	-0.81
CCS(=O)(=O)Nc1cccc(C2=NN(S(C)(=O)=O)C(c3cccs3)C2)c1 (stereo not given)	0.36	1.8
Cn1cc([N+](=O)[O-])c(C(=O)NNC(=O)c2ccc([N+](=O)[O-])cc2)n1	1.4	0.54
COc1ccc(C)cc1-n1c(-c2ccncc2)n[nH]c1=S	1.6	0.12
Cc1nnc(SCC(=O)N(C)Cc2ccccc2)[nH]c1=O	0.59	0.44
CCOC(=O)c1nnn(CC(=O)N2N=C(c3ccccc3)CC2c2ccccc2)c1C(=O)OCC (stereo not given)	0.62	2.8
C=CCNC(=O)CC(=O)N/N=C/c1cccc(C)c1	2.1	-0.45
COc1cccc2c(Cl)c(CC=C(Cl)Cl)c(C)nc12	0.23	0.07
C=CCn1nc2n(c1=O)-c1ccccc1SC2	0.12	-0.12
CN(C)c1nc2c(c(N)nn2-c2ccc(Cl)cc2)c(=O)o1	0.19	-0.53
O=S(=O)(Nc1c(O)ccc2ccccc12)c1cccc2ccccc12	1.1	-2.1
O=C1CSCN1c1ccc(Cl)c(Cl)c1	0.02	-0.9
O=C(O)CCc1ccc(S(=O)(=O)NCCc2ccccc2)cc1	0.23	0.37
CCCN(c1ccc(C(=O)OC)cc1)S(=O)(=O)c1ccccc1	0.24	-0.62
COc1cc(OC)cc(C(=O)NCC2CCCO2)c1 (stereo not given)	0.32	0.51
CCc1nc(N)c(C#N)c(-c2ccc(OC)c(OC)c2)c1C	1.1	3.1
COC(=O)c1ccc(N2C(=O)Nc3ccccc3N2O)cc1	2	-0.71
COc1ccc(OCC(O)CNC(=O)Nc2cc(F)ccc2C)cc1 (stereo not given)	0.34	-0.42
Cc1csc2ncnc(NCCc3ccccn3)c12	0.43	-0.26
Cc1nc2nc(-c3cccnc3)nn2c(C)c1Cl	1.9	-1.5
O=C(NCCc1ccccc1)C1CC(=O)N(C2CCCCCC2)C1 (stereo not given)	0.96	-0.07
C=CCn1c(SCC(=O)N2CCc3ccccc3C2)nc2sc(C)cc2c1=O	0.14	-0.56
O=C(Cn1ncc2c3ccccc3n(Cc3ccccc3)c2c1=O)NCc1ccccn1	4.8	0.81
Cc1ccc(Cn2c(=O)n(Cc3ccco3)c(=O)c3ccccc32)cc1	0.99	-1.9
C/C(=N\NC(=O)COc1ccc(C(C)(C)C)cc1)c1ccc(OC(F)F)cc1	0.74	0.36
Cc1cc([N+](=O)[O-])nn1CCCC(=O)O	1.8	-0.03
O=C(Nc1cccc(F)c1)c1c(F)c(F)c(F)c(F)c1F	1.7	-0.52
Cc1ccc(N2C(=O)C(Cc3ccccc3)NC2=S)cc1 (stereo not given)	0.82	-1.2
COc1ccc(/C=N/N=C2/NC(=O)C(c3ccccc3)(c3ccccc3)S2)cc1	0.61	-1.5
COc1ccc(C(=O)Nc2ccc(S(=O)(=O)Nc3cc(C)nc(C)n3)cc2)c(OC)c1	1.1	0.03
Cc1ccc(NC(=O)CSc2ccccc2NC(=O)c2ccccc2)cc1Cl	0.52	-1.1
Cc1cc(C)n(C(=O)Cn2nc([N+](=O)[O-])cc2C)n1	1.6	-0.33

Screening results as filed in PubChem BioAssay.
